Ab BasE inh: BasE siderophore enzyme inhibitors, primary screen, biochemical, Acinetobacter baumannii ATCC 17978, fluorescence polarization | purified BasE, fluorescence polarization binding displacement | inhibition, % (test concentration not listed) | hit rate 0.1% among 84,000 | AID 485350, 2010;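 active means both replicates above 25% with normal brightness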;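 further: 0% = negative plate control signal and 100% = positive plate control signal; stock transfer was 100 nL into about 30 µL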
LANA-nucl inh: inhibitors of KSHV LANA-nucleosome binding, primary screen, biochemical, fluorescence polarization, FITC-LANA1-23, chicken nucleosomes | FITC-LANA1-23 / chicken nucleosome fluorescence polarization; stronger effect = lower value | z-score (test concentration not listed) | hit rate 0.3% among 51,000 | AID 720717, 2013;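 active means both repeat wells score below -2 in polarization z-score versus plate sample wells, excluding overly bright wells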;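 further: 100 nL library stock added to about 30 µL; numbers are from one replicate; some results filed as inactive read as strong as hits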
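System – purified chicken nucleosomes with FITC-labelled LANA N-terminal peptide (1-23) · Amount – 240 nM purified chicken nucleosomes (480 nM peptide binding sites), final · Also added – 50 nM FITC-LANA1-23 probe · Medium – TEN-BT buffer, pH 7.5 · Incubation – compound with peptide–nucleosome mix 10–45 min at room temperature · Detection – fluorescence polarization, ex 480 nm, em 535 nm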
* = called active by the depositor; x = not tested or not shown; & = joins results of further samples.

nr	compound	LANA-nucl inh	Ab BasE inh
1	Cc1cccc(C(=O)NC(=S)Nc2ccc(N3CCN(C)CC3)cc2)c1	-0.973	-0.3
2	CCn1cc(C(=O)O)c(=O)c2cnc(N3CCN(C(=S)NCc4ccccc4)CC3)nc21	-0.787	1.8
3	CCCCc1nc2sc3c(NCc4ccccc4)ncnc3c2c2c1COC(C)(C)C2	x	1.0
4	Cc1occc1C(=O)N/N=C/c1cn(-c2ccccc2)nc1-c1ccccc1	x	1.8
5	Cc1cc(=O)[nH]c(SCSc2nc(C)cc(=O)[nH]2)n1	-0.0755	-1.2
6	CC1(C)C(=O)C2(C(=O)NCCc3ccccc3)CCC1C2 (stereo not given)	0.679	4.3
7	N#Cc1ccc(Cn2cccn2)cc1	x	1.3
8	CCN(CC)CC(=O)O	-0.049	0.2
9	COc1ccc(C(O)c2nnc(-c3ccccc3)o2)cc1OC (stereo not given)	x	1.3
10	N#CCCn1nnc2ccccc21	x	2.0
11	Cc1cc2c(C)cc(=O)oc2c2c1NCCC2	-0.338	2.9
12	CC1Cc2ccccc2N1C(=O)CSc1nnc2c(n1)[nH]c1ccccc12 (stereo not given)	-0.342	1.1
13	CCC(C)C(=O)Nc1ccc(-c2nc3ccccc3o2)cc1 (stereo not given)	-0.856	1.2
14	Cn1nnnc1SCC(=O)N1CCCC1c1ccc2c(c1)OCCCO2 (stereo not given)	x	-0.7
15	O=C(Cn1nc(-c2ccccc2)ccc1=O)Nc1ccc(F)cc1	-1.28	1.9
16	Cc1ccc(NC(=O)NC(=O)CN2C(=O)C3CC=CCC3C2=O)c(C)c1 (stereo not given)	x	0.6
17	O=C(Oc1cc(=O)oc2c1c(=O)n1c3c(cccc23)CC1)c1ccc(F)cc1	0.123	0.1
18	O=S(=O)(c1cccs1)N(Cc1ccccc1)S(=O)(=O)c1ccccc1F	x	1.1
19	CC(C)(C)C(=O)N(Cc1ccccc1)c1ccccn1	0.774	0.6
20	COc1ccc(/C=C2\SC(=N)N(c3ccc(OC)cc3)C2=O)cc1	x	-3.4
21	CN1C(=C(C#N)C#N)N(N)c2ccccc21	0.502	1.6
22	O=S(=O)(NCCC1=CCCCC1)c1ccc(Cl)cc1	x	-0.1
23	CCC(C)(C)NC(=O)c1cccc(F)c1	-1.41	-4.3
24	C=Cc1ccc2c(ccn2C(C)=O)c1	1.96	-5.7
25	CCc1ccc(OC)c(S(=O)(=O)n2ccnc2)c1	0.383	2.4
26	Cc1[nH]c(=S)[nH]c(=O)c1CC(=O)O	0.447	-0.3
27	O=C(COc1ccccc1)NCCSC1CCCCC1	-0.919	0.6
28	Cc1nnc(NC(=O)c2ccc3c(c2)C(=O)N(Cc2cccnc2)C3=O)s1	0.684	1.6
29	CC[n+]1c(/C=C2/C=C(C)CC(C)C2)sc2ccccc21 (stereo not given)	x	1.4
30	COC(=O)C(Cc1c[nH]c2ccccc12)NC(C)=O (stereo not given)	0.453	5.0
31	CC(C)(C)CC(=O)NC(=S)NC1CCCCC1	0.285	3.2
32	Cc1cc(C)nc(SCc2ccccc2F)n1	-0.634	-0.6
33	COC(=O)CN(Cc1ccccc1)S(=O)(=O)c1ccc(F)cc1	-1.01	1.3
34	CCN1/C(=C/C=C2/C(=O)N(C)C(=S)N2C)Oc2ccccc21	3.03	-20.7
35	CCN1CCCC1CNC(=O)C1c2ccccc2C(=O)N(CCOC)C1c1c[nH]c2ccccc12 (stereo not given)	0.276	1.1
36	O=C(CN1CCN(Cc2ccccc2Cl)S1(=O)=O)Nc1ccccc1	1.32	-0.8
37	COC(=O)/C(C#N)=C/c1cc(C)n(CC(C)C)c1C	x	-1.4
38	COc1ccc(-n2c(SCC(=O)NCCC3=CCCCC3)nc3n[nH]c(C)c3c2=N)cc1	-1.31	1.4
39	CCOc1ccc(-c2cc(OC)c3c(C)oc(C)c3c(=O)c2)cc1	x	-0.7
40	COC(=O)/C=C/c1cnc2ccccc2c1	-0.655	x
41	O=C(COc1nncc2ccccc12)NCCC1=CCCCC1	x	3.1
42	COC(=O)c1nnn(-c2nonc2N)c1CN(C)C	-0.0255	1.0
43	C=CCN(C(=O)CSc1nc2c(c(=O)[nH]1)CCC2)c1ccccc1	-0.277	-0.2
44	CN1C(=O)C(C)(C)c2cc(S(=O)(=O)NCC3CCC(C(=O)N4CCCC4)CC3)ccc21 (stereo not given)	-0.762	-0.2
45	Cc1cc(N/C=C(\C#N)C(=O)c2ccc(Cl)cc2)no1	0.497	-0.2
46	O=C(CCc1c[nH]c2ccccc12)OCC(=O)c1cc2c3c(c1)CC(=O)N3CCC2	x	-1.6
47	O=c1c2ccccc2nc2n1CCC2O (stereo not given)	-0.371	-1.4
48	O=C(COc1ccc(Cl)cc1Cl)NCCCN1CCOCC1	0.301	-1.4
49	Cc1nc(Cc2nnc(SCc3cc(=O)oc4cc(C)c(C)cc34)o2)cs1	x	0.5
50	CCn1cc(CNC)c(C)n1	-0.133	14.3
51	COC(=O)c1scc(C)c1NNC(=O)C(F)(F)F	-0.362	2.3
52	Cc1cc(C(=O)CSc2nc3ccccc3c(=O)[nH]2)c(C)n1-c1ccc2c(c1)OCO2	x	1.4
53	CCN1CCN(Cc2ccc(NC3=NS(=O)(=O)C(c4ccc(C)c(C)c4)=C3C)cc2)CC1	-0.768	-2.2
54	NNC(=O)Cc1cc(=O)n(-c2ccc(F)cc2)[nH]1	x	3.8
55	O=C1c2ccccc2-c2ccccc21	x	-2.6
56	CCn1c(SCC(=O)Nc2nc(-c3ccccc3)c(-c3ccccc3)o2)nc2ccccc2c1=O	-0.331	-0.1

3 entries already listed, ordered by their value in LANA-nucl inh, high to low:
nr	smiles	LANA-nucl inh
50	CCn1cc(CNC)c(C)n1	-0.133
56	CCn1c(SCC(=O)Nc2nc(-c3ccccc3)c(-c3ccccc3)o2)nc2ccccc2c1=O	-0.331
53	CCN1CCN(Cc2ccc(NC3=NS(=O)(=O)C(c4ccc(C)c(C)c4)=C3C)cc2)CC1	-0.768

The listing continues:
nr	compound	LANA-nucl inh	Ab BasE inh
57	O=C(NCC1CCCCC1)C1CCCN(c2ncccn2)C1 (stereo not given)	-0.802	-0.7
58	Cn1c(=O)c2c(NCc3ccccc3)cc(=O)n(C)c2n(C)c1=O	-0.506	2.4
59	CN(C1CCCCC1)S(=O)(=O)c1ccc(Cl)c(C(=O)O)c1	x	1.8
60	c1cc2c(cc1OCc1nn[nH]n1)OCO2	-0.651	0.0
61	COCC(C)n1c(C)cc(C(=O)COC(=O)c2ccc(S(=O)(=O)N3CCCC3)cc2)c1C (stereo not given)	x	2.2
62	COc1ccc(N2CC(C(=O)Nc3ccc(S(=O)(=O)N4CCCC4)cc3)CC2=O)cc1 (stereo not given)	-0.0765	-1.8
63	CC(C)N(Cc1ccccc1)C(=O)Cn1c(=O)cnc2ccccc21	x	-3.9
64	NCCS(=O)(=O)O	-0.099	x
65	CCCOc1ccc(C(=O)NCC2CCCO2)cc1 (stereo not given)	-0.443	0.8
66	COC(=O)C(C)Oc1cc(O)c2c(=O)cc(-c3ccccc3)oc2c1 (stereo not given)	-0.632	1.2
67	COc1ccc(C2(N3CCC4(CC3)OCCO4)C(=O)c3ccccc3C2=O)cc1	x	0.2
68	COc1cccc(CN(C(=O)CSc2nc(N)nc(N)n2)C23CC4CC(CC(C4)C2)C3)c1	x	2.1
69	CC(=O)Nc1ccc(N2CCN(Cc3ccccc3)CC2)cc1	-0.952	1.2
70	CCOC(=O)c1csc(NC(=O)c2cccs2)n1	0.371	0.1&-0.4
71	CCOC(=O)N1CCC(NC(=O)c2oc3ccc4c(c3c2C)C(O)CC(C)(C)O4)CC1 (stereo not given)	0.685	-3.3
72	NC(Cn1ccc(=O)c(O)c1)C(=O)O (stereo not given)	-0.19&0.329	-0.8&-3.0
73	Cn1c(N)c(C(=O)CSc2ccccn2)c(=O)n(C)c1=O	x	1.4
74	CCCn1c(N)c(N(C)C)c(=O)n(CC(=O)Nc2ccc(OC(F)(F)F)cc2)c1=O	x	0.2
75	Cc1noc(C)c1C(=O)O/N=C1\CCSc2ccc(F)cc21	-0.327	0.5
76	Cc1ccc2c(CSc3nnc4ccccn34)cc(=O)oc2c1	x	2.8
77	CC(=O)N[C@@H]1[C@@H](O)[C@H](O)[C@@H](CO)O[C@H]1O	-0.461	-1.6
78	CC(C)(C)C(=O)NC(=S)Nc1ccc2c(c1)COC2=O	x	-2.1
79	Cc1cn(S(=O)(=O)c2csc(Cl)c2Br)nc1-c1cccs1	0.606	1.6
80	O=C(c1ccc(S(=O)(=O)N2CCCCCC2)cc1)N(c1ccccn1)c1ccccn1	x	1.8
81	CCCCCC(O)C1C(=O)OC(C)C(O)/C=C/C=C/C=C/C=C/C=C(\C)C(O)CC(O)CC(O)CC(O)CC(O)CC(O)CC1O (stereo not given)	-0.48	x
82	CS(=O)(=O)c1ccccc1-c1nnc(NC(=O)C2CCCCC2)o1	0.056	0.1
83	O=C1Cc2ccccc2C(=O)N1c1ccc(Br)cn1	x	-0.7
84	O=C1C=C(Nc2ncn[nH]2)CC(c2cccs2)C1 (stereo not given)	-1.05	1.4
85	Cc1nc(N)[nH]c(=O)c1Br	1.16	-2.4
86	CC(C)N(CCC#N)C(=S)Nc1ccc(S(=O)(=O)N2CCCCC2)cc1	-0.228	2.5
87	Cc1ccc(C=C2C(=O)OC(C)(C(C)(C)C)OC2=O)o1 (stereo not given)	1.87	-3.2
88	CSc1ncccc1C(=O)OCc1c(C)noc1C	x	1.1

Compounds from the list above that have a CF3 group, in the order listed:
nr	compound	LANA-nucl inh	Ab BasE inh
51	COC(=O)c1scc(C)c1NNC(=O)C(F)(F)F	-0.362	2.3
74	CCCn1c(N)c(N(C)C)c(=O)n(CC(=O)Nc2ccc(OC(F)(F)F)cc2)c1=O	x	0.2

Continuation.
nr	compound	LANA-nucl inh	Ab BasE inh
89	CCOC(=O)c1cncc(C#CCOC(=O)Nc2cc(Cl)cc(Cl)c2)c1	x	3.7
90	Cc1ccc(/C=N/NC(=O)c2ccccc2NS(=O)(=O)c2cccs2)o1	x	1.7
91	O=C(COC(=O)c1ccccn1)NC1CCCc2ccccc21 (stereo not given)	x	2.1
92	Cc1ccc(CN2CCC(CNS(=O)(=O)c3cc(-c4cc(C)no4)ccc3C)C2)cc1 (stereo not given)	x	-12.7
93	COc1ccc(S(=O)(=O)c2cnc3cc4c(cc3c2N2CCC(C(N)=O)CC2)OCCO4)cc1	0.008	-2.0
94	CCn1c(=O)n(CC)c2cc(NC(=O)CSc3nc4ccccc4[nH]3)ccc21	-0.375	-0.3
95	CCCN1CCSC1=Nc1ccccc1F	x	-0.1
96	CC(C)(C)c1cc(C#N)cc(C(C)(C)C)c1O	-0.111	1.7
97	Cc1nc(=O)c(-c2ccccc2)c(C)n1CC1CCCO1 (stereo not given)	x	3.5
98	O=C(O)CCCn1cnc2sc3c(c2c1=O)CCCC3	-0.369	-1.5
99	CC(=O)OCc1ccccc1Sc1ccccc1C(=O)NCc1ccccc1	x	2.1
100	N#CC(C#N)=NNc1ccc(SC(F)F)cc1	x	3.5
101	C=CCNC(=S)Nc1ccc2cn[nH]c2c1	x	-0.9
102	O=C(OC1CCCCC1=O)c1ccc2c(c1)OCO2 (stereo not given)	x	1.3
103	O=C(NCc1ccc2c(c1)OCO2)c1ccc2c(c1)C(=O)N(C1CCCCC1)C2=O	-0.169	0.7
104	C(=C\c1ccccc1)/CNc1ccc(N2CCOCC2)cc1	0.153	3.8

Reformatted: results already given.
Each structure is followed by: LANA-nucl inh, Ab BasE inh
100: N#CC(C#N)=NNc1ccc(SC(F)F)cc1
 : x, 3.5
98: O=C(O)CCCn1cnc2sc3c(c2c1=O)CCCC3
 : -0.369, -1.5
104: C(=C\c1ccccc1)/CNc1ccc(N2CCOCC2)cc1
 : 0.153, 3.8
103: O=C(NCc1ccc2c(c1)OCO2)c1ccc2c(c1)C(=O)N(C1CCCCC1)C2=O
 : -0.169, 0.7

The list goes on.
nr	compound	LANA-nucl inh	Ab BasE inh
105	CCCCNC(=O)c1c[nH]c2ccc(C)cc2c1=O	-0.0045	-1.6
106	O=C(CN1CCN(S(=O)(=O)c2cccs2)CC1)Nc1ccccc1Oc1ccccc1	x	2.8
107	CCCCSC(=O)Nc1ccccc1	-0.102	1.7
108	CC(=O)NC(c1ccccc1)n1nnc2ccccc21 (stereo not given)	-0.748	0.0
109	CCOC(=O)c1cc(-c2ccc(S(=O)(=O)N(C)CCCc3ccco3)s2)on1	0.201	-1.0
110	O=C(OC1CCCCC1=O)c1ccc2c(c1)C(=O)N(Cc1ccco1)C2=O (stereo not given)	x	1.0
111	CCOC(=O)C(=NCc1ccco1)NNc1cccc(C(F)(F)F)c1	x	0.7
112	CCOC(=O)c1cn(Cc2ccc(Cl)cc2Cl)c2cc(C)nn2c1=O	-0.558	-0.6
113	COC(=O)CSc1ncnc2c1cnn2-c1ccccc1	-0.198	-0.4
114	O=C(Cc1ccccc1)Nc1ccccc1CO	0.398	0.2
115	O=C1/C(=C/c2ccccc2)Oc2c1ccc(O)c2CN1CCOCC1	0.05	-0.8

Assay outcomes (PubChem BioAssay)

Only part of the results is shown; count on the stated rates, not on these rows.
